# PABP FP inh: PABP-poly(A) binding inhibition; P11940; 1% of 290,000 active; PABP-poly(A) RNA binding, fluorescence polarization; inhibition, % at 35 µM;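 active = 50% or more with normal probe brightness, or confirmed in later tests; inconclusive = above 50% with abnormal brightness, or retests that disagree; inactive = below 50% or failed in later tests; about a fifth of its hits are not listed in these tables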;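 note: calls also rest on retests at 20 µM and on dose response follow-up; controls were probe without protein and protein plus probe with vehicle; some compounds called inactive have numbers as strong as hits; many hits fall short of the cut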
# Target sequence (P11940 whole entry, looked up): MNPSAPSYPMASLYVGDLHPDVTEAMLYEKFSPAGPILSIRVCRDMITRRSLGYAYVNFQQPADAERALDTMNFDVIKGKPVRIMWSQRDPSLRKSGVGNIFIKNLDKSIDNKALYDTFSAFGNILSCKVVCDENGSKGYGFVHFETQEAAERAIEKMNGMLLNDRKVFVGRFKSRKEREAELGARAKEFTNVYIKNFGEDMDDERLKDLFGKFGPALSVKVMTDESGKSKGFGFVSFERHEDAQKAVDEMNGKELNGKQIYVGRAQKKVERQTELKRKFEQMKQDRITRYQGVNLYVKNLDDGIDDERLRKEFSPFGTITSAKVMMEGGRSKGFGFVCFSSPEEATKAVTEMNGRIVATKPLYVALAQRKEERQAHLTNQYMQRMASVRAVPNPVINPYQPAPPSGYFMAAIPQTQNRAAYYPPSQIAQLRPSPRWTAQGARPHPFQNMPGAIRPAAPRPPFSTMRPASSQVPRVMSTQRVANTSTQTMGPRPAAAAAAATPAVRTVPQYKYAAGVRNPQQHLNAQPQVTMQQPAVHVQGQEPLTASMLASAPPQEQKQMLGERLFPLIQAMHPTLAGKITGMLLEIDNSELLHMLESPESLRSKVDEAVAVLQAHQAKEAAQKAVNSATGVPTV
# MT1-MMP act inh: MT1-MMP (human) activation inhibition; P50281; HT1080 RFP-PRO-GFP cells, GFP/RFP ratio fluorescence, overnight; percent of plate control window, DMSO zero; GFP/RFP ratio change, % at 20 µM; 0.061% of 360,000 active; AID 651647;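 active = GFP/RFP ratio change of at least 30% with cell ATP level not reduced by more than half and red fluorescence within 50% of control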; note: strong numbers were not always called active
#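 system = RFP-PRO-GFP reporter HT1080 cells | dosing = 20 µM single dose, 1% DMSO | timing = overnight cell settling, then overnight compound exposure, 37 °C, 5% CO2 | read-out basis = GFP/RFP fluorescence ratio | controls = DMSO and RFP-L50D-GFP cell wells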
# Rce1 inhib: inhibitors of yeast Ras-converting enzyme; 0.27% of 290,000 active; AID 2563; calls only; yeast membranes, quenched prenylated peptide cleavage fluorescence; Q03530;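 active = fall in fluorescence gain of 50% or more versus controls, with final raw signal at or below 3038400; inconclusive = same 50% fall but final raw signal above 3038400; inactive = fall in fluorescence gain under 50%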;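 note: plate controls were neutral control wells for no effect and wells lacking membranes for full effect; tested at 10 µM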
# Target sequence (Q03530 whole entry, looked up): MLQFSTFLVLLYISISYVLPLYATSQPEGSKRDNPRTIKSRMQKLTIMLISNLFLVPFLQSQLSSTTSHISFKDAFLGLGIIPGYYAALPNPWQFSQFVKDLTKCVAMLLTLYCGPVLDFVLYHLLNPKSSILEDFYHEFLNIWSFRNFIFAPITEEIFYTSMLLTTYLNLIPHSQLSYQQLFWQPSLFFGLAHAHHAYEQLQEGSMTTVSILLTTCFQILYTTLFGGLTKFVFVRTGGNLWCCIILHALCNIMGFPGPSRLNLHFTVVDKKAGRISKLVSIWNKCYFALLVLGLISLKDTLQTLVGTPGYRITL
# UUG fidelity: modulators of start codon recognition fidelity in yeast | S. cerevisiae UUG-firefly luciferase reporter, luminescence/redox ratio | activity score, % at 18.7 µM | 0.13% of 350,000 active;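 active = replicate mean at a twofold rise or more, about +100% in these data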;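 note: firefly luciferase made from a UUG start codon reports start codon fidelity; reporter light over untreated wells divided by growth signal over untreated wells; some hits fall short of that in this replicate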
# eIF4H FP inh: inhibitors of RNA binding by human eIF4H; eIF4H fluorescence polarization binding assay; Q15056; inhibition, % at 35 µM; 0.94% of 290,000 active;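 active = 50% or more with normal probe brightness, or confirmed in later tests; inconclusive = above 50% with abnormal brightness, or retests that disagree; inactive = below 50% or failed in later tests; about a fifth of its hits are not listed in these tables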;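 note: calls also rest on retests at 20 µM and on dose response follow-up; 0% = protein and probe with vehicle and 100% = probe without protein; strong numbers were not always called active; many hits fall short of the cut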
# HIV Env fusion: blocks HIV Env-driven cell-cell fusion; HeLa-JRFL Env/CEM21 cell fusion, luciferase; AID 651610; 1.1% of 360,000 active; inhibition, % at 12.3 µM;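 active = mean replicate inhibition score of at least 50 and every replicate individually at or above 50; inconclusive = only one of the two criteria met; inactive = mean below 50 and not all replicates reaching 50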;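 note: 0% = plate neutral controls and 100% = maraviroc near 300 nM; one replicate is shown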
# CSC inhib: blocks cancer stem cells | cancer stem cell-like cells viability, luminescence | inhibition, % at 7.5 µM | 1.1% of 300,000 active | AID 2717;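 active = mean at 75% or more and at least half the replicates too; inconclusive = mean and replicates disagree; tested in HMLE shEcad cells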;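 note: 0% = median of negative and 100% = median of positive control wells; the first replicate is given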
# eIF4H FP inh retest: recorded beside eIF4H FP inh, whose call it bears; inhibition, %; compound at 20 µM; confirmation average;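 mean of two retest wells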
# PABP FP inh retest: further read-out of PABP FP inh, marked with its call; inhibition, %; compound at 20 µM; confirmation repeats;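 mean of two retest wells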
# MT1-MMP act inh RFP: second read-out of MT1-MMP act inh, no call of its own (marks repeat the call); RFP signal change, %; measured here: RFP expression control read;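 0 = vehicle wells; hits needed this value within 50% of zero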
# * = called active by the depositor; i = inactive; ? = inconclusive; / = not tested or not shown; & = joins results of further samples; [ ] = another dose, or the depositor's remark. Not all compounds are listed; rates above refer to the full screens.
SMILES,PABP FP inh,MT1-MMP act inh,MT1-MMP act inh RFP,Rce1 inhib,UUG fidelity,eIF4H FP inh,HIV Env fusion,CSC inhib,others
Cc1cc(NS(=O)(=O)c2ccc(NC(=O)Cc3ccc([N+](=O)[O-])cc3)cc2)nc(C)n1,/,-1,-1,/,-11,/,8,-12,
CC(C)(C)OC(=O)NC1CC2CCCC(C1)N2Cc1ccccc1 (stereo not drawn),6,2,4,i,-10,1,-4,/,
Cc1nc(CSc2ccc(Br)cc2)cs1,0,1,-1,i,5,0,5,-6,
O=C(O)c1cc(S(=O)(=O)NC2CCCc3ccccc32)ccc1O (stereo not drawn),2,-3,2,/,2,-2,-4,-12,
CCOc1cnn(-c2cc(Oc3ccc(C)cc3)ncn2)c(=O)c1Cl,-2,1,-2,i,-7,-6,/,-6,
CN(C)CCCN1c2ccccc2CCc2ccc(Cl)cc21,-1,/,/,i,-8,4,19,8,
COc1cccc(-c2c(C(=O)N/N=C(\C)c3ccco3)nnn2-c2nonc2N)c1,1,-9,-2,i,-19,-16,8,-4,
Cc1ccc(N(CC(=O)NCCSCc2ccco2)S(C)(=O)=O)cc1,2,1,-1,i,-10,2,/,-1,
CC(C)=CCN1CCN(Cc2cn(C(C)C)c3ccccc23)CC1CCO (stereo not drawn),-7,-3,2,i,-11,-8,-2,9,
CCN(CC)CCNC(=O)c1nn(-c2ccc(C)cc2)c(=O)c2c1c1ccccc1n2C,-8,-9,-6,i,0,-16,/,-4,
O=C(COc1cccc(F)c1)Nc1nc(-c2ccncc2)cs1,/,3,2,/,-1,/,-9,/,
O=C(CSc1nnc(NC(=O)c2ccc(F)cc2F)s1)NC1CCCC1,1,2,-2,i,-9,9,-18,1,
CCOc1ccc(OCCCC(=O)Nc2cc(Cl)ccc2-n2cncn2)cc1,/,-1,-4,/,-30,/,/,-7,
C[C@H](CO)N1C[C@H](C)[C@@H](CN(C)Cc2ccc(Cl)c(Cl)c2)Oc2c(NC(=O)C3CC3)cccc2C1=O,/,1,-6,/,2&-2,/,-6[16.7 µM],8,
COc1ccc(S(=O)(=O)N2CCOCC2)cc1Br,-10,1,1,i,-10,-5,7,-10,
N#Cc1ccc(-c2nc3c4ccccc4ccn3c2Cc2ccccc2C(F)(F)F)cc1,/,3,10,/,-10,/,1,/,
CCOc1cc(-c2nc(-c3ccccc3OC)no2)cc(OCC)c1OCC,-6,-7,-10,i,-15,7,/,19,
Cc1nn(-c2ccccc2)c2c1P(=O)(O)/C(=C1\N(C)c3ccccc3C1(C)C)C=N2,-4,/,/,i,13,0,/,-5,
c1ccc(C2Nc3ccccc3-c3nc4ccccc4n32)cc1 (stereo not drawn),-5,-2,-5,?,-23,-7,15,30,
CCOC(=O)c1sc(NC(=O)CSc2nncs2)c(C(=O)OCC)c1C,6,-4,-5,i,-2,1,/,-4,
Cc1ccc(-c2cc(C(=O)N(C)CC(=O)Nc3ccccc3Br)c3ccccc3n2)o1,/,-4,2,i,5,/,5,-8,
O=[N+]([O-])c1cc2ncccc2c2ncccc12,/,-3,5,/,-22,/,25,/,
CC(=O)Nc1cccc(NC(=O)c2ccccc2OCc2ccccc2)c1,0,-2,-5,i,-4,-12,-24,0,
C=CCn1c(C)c(C(C)=O)c(N2CCN(C(c3ccccc3)c3ccccc3)CC2)nc1=S,2,-13,-8,i,/,80,6,-2,eIF4H FP inh retest=-10;PABP FP inh retest=6
CCOC(=O)[C@@H]1CCN(Cc2ccccc2)C[C@H]1c1ccccc1,-8,2,-1,i,-5,2,11,-9,
Cc1[nH][nH]c(=O)c1C(c1ccc(Br)cc1)c1c(C)[nH][nH]c1=O,-2,2,-1,i,-20,6,-4,0,
CN1CCC(=NNC(=O)CSc2ccc(Cl)cc2)CC1,-4,-3,2,i,/,0,5,3,
O=C(O)c1ccc(NS(=O)(=O)c2ccc(Cl)c(Cl)c2)cc1O,1,6,2,i,-16,-2,/,-10,
Cc1cc(C)cc(NC(=O)COC(=O)Cc2ccccc2F)c1,/,1,2,/,10,/,-5,/,
NS(=O)(=O)c1ccc(-c2c(-c3ccccc3)sc3ccccc23)cc1,/,-5,-3,/,63,/,41,7,
CC1CCCCC1NC(=O)CCCn1c(=S)[nH]c2ccsc2c1=O (stereo not drawn),3,1,0,i,-6,-21,-13,3,
CCOC(=O)Cc1csc(NC(=O)c2cc(C)c(C)s2)n1,/,-2,-7,/,-17,/,-5,-4,
CCN(CC)Cc1c(O)c(Cl)cc2c3c(c(=O)oc12)CCCC3,35,-3,4,i,-2,15,/,0,
Cc1ccc2nc3nc(NCC4CCCO4)c(C(=O)NC4CCCC4)cc3c(=O)n2c1 (stereo not drawn),5,0,4,i,-3,57,5,-12,eIF4H FP inh retest=-6;PABP FP inh retest=20
CCOC(=O)c1c(NC(=O)COC(=O)c2nc(Cl)ccc2Cl)sc2c1CCC2,5,3,7,i,/,7,-2,-11,
COCCn1c(SCC#N)nnc1-c1ccccc1,-12,5,-3,i,-12,3,-24,-6,
COC(=O)CSc1cc(C(=O)c2nccn2C)c2ccccc2n1,1,-4,0,i,2,-2,/,/,
O=S(=O)(/N=C(/Nc1ccc(Cl)c(S(=O)(=O)N2CCOCC2)c1)c1ccc(F)cc1)c1ccccc1,6,-1,-5,i,6,-2,8,-10,
CCC(C)c1ccccc1NC(=O)CN1CCN(C/C=C/c2ccccc2)CC1 (stereo not drawn),-6,0,2,i,/,-1,12,5,
O=C(NCCS(=O)(=O)NCc1cccs1)c1ccccc1,/,-3,1,/,-18,/,4,/,
CS(=O)(=O)c1ccc(NS(=O)(=O)c2ccc3ccccc3c2)cc1,2,7,5,i,4,-6,-11,-1,
C=CCNC(=S)NNC(=O)CSc1nc2ccccc2s1,10,3,0,i,/,5,/,-6,
CC1=CC(C)(C)N2C(=O)C3(C(C#N)=C(N)Oc4cc(O)ccc43)c3cccc1c32 (stereo not drawn),9,-4,-4,i,6,-2,/,11,
O=C(/C=C/[C@H]1O[C@@H](n2cnc3c(NC(=O)c4ccccc4)ncnc32)[C@H](O)[C@@H]1O)NCc1ccco1,/,2,6,/,-7,/,-3,/,
CCC[C@H]1COCCS(=O)(=O)N1Cc1ccccc1F,10,/,/,i,-7,2,-10,4,
CC(CNc1ccc([N+](=O)[O-])cc1)NC(=O)c1ccccc1Br (stereo not drawn),0,12,2,i,/,0,-26,-4,
CC(C)(C)c1ccc(C2C(C(=O)c3ccco3)=C(O)C(=O)N2CC2CCCO2)cc1 (stereo not drawn),12,-2,2,i,-12,-4,10,14,
COc1ccc(N2CCN(C3CCCN(C(=O)CSC)C3)CC2)cc1 (stereo not drawn),-4,1,3,i,-3,2,6,-13,
O=C(O)CCc1ccc(-c2cccs2)n1NC(=O)c1ccc(Cl)cc1Cl,22,-8,2,i,-15,6,-20,2,
O=C(O)/C=C/c1ccc(OCc2cccc(F)c2)cc1,-14,2,0,i,-15,-1,5,/,
Cc1ccc2c(c1)nnn2C1CCN(CC(=O)NCc2ccccc2F)CC1,-2,-3,3,i,/,5,16,-14,
Cc1ccc(C)c(N2CCN(S(=O)(=O)c3cc4c(cc3Cl)NC(=O)CO4)CC2)c1,-11,0,1,i,-15,-2,-11,-20,
CC(NC(=O)COC(=O)CCc1ccccc1)c1ccccc1 (stereo not drawn),7,-1,1,i,18,-1,/,5,
Cc1nc(C(=O)NC2CC2)sc1C1(C)CC(c2cccc([N+](=O)[O-])c2)=NO1 (stereo not drawn),-6,0,-3,i,9,1,30,28,
CC(c1ccccc1)N1C(=O)OC(C)(C)C1(C)O (stereo not drawn),/,8,0,/,-21,/,-12,/,
COCc1nnc(NC(=O)c2ccccc2Oc2ccccc2)s1,-8,-6,-9,i,-2,1,8,/,
CCCCCC(=O)NNC(=O)c1ccc(-c2ccccc2)cc1,-5,1,3,i,-7,-4,/,22,
COc1ccc(CNC(=O)CN(CCC(C)C)S(=O)(=O)c2ccc3c(c2)OCCO3)cc1,8,-3,1,i,3,2,1,-3,
O=C(Nc1cccc(C(=O)N2CCCC2)c1)c1ccccc1,4,4,3,i,-5,5,-79,-7,
COc1ccc(C2CC(c3ccccc3)=NN2C(=O)COC(=O)CNC(=O)c2ccccc2)cc1 (stereo not drawn),6,2,-2,i,21,3,19,-11,
# Carrying on:
SMILES,PABP FP inh,MT1-MMP act inh,MT1-MMP act inh RFP,Rce1 inhib,UUG fidelity,eIF4H FP inh,HIV Env fusion,CSC inhib,others
CCO[C@H]1OC(C(=O)N2CCOCC2)=C[C@@H](C)[C@@H]1CCCO,1,-4,4,i,-4,-7,12,-3,
COc1cc(OC)cc(C(=O)OCC(=O)NC(C)CCc2ccccc2)c1 (stereo not drawn),7,0,1,i,-18,1,18,20,
COc1ccc2oc(=O)c(C(=O)NCc3ccc(C)cc3)cc2c1,0,3,-1,i,-18,-8,-9,13,
Cc1cccc(C(=O)NC(=S)Nc2ccc(S(=O)(=O)N3CCCCC3)cc2)c1,-4,0,-14,i,-15,-6,/,5,
CCc1nc2ccc(C(=O)NCc3cccs3)cn2c1N(CCC(C)C)CCN(C)C,/,-12,-2,/,-4,/,6,/,
Cc1ccc(C)c(S(=O)(=O)N2CCN(C(=O)CCC(=O)c3cc(C)sc3C)CC2)c1,/,-3,-7,i,14,/,/,0,
O=Nc1c(-c2ccccc2)cc2ccccn12,-3,4,0,i,12,7,-50,9,
O=C(NCc1ccco1)C(=O)NCC1OCCCN1S(=O)(=O)c1ccc(F)cc1 (stereo not drawn),-2,2,5,i,/,2,18,11,
O=C(O)CSc1nnc(-c2cccc(S(=O)(=O)N3CCOCC3)c2)n1-c1ccc(F)cc1,/,2,-1,/,2,/,-23,-15,
CCCCC1(C)Nc2ccccc2-c2nc3ccccc3n21 (stereo not drawn),6,5,-3,?,-11,-8,-105,1,
Cc1nc2c(=O)oc3ccccc3c2n1-c1ccccc1,2,2,6,i,-4,-7,/,-9,
Cc1cc(C(=O)CSc2nc(N)cc(=O)[nH]2)c(C)n1-c1ccc(OC(F)F)cc1,-2,-5,-27,i,-14,-4,33,3,
CCCn1cc(SCC(=O)NCc2ccc3c(c2)OCO3)c2ccccc21,4,5,0,i,-15,5,-36,0,
COc1ccc(Nc2cc(Nc3cc(OC)c(OC)c(OC)c3)ncn2)cc1,-5,1,-5,i,-15,-16,14,35,
CCOc1ccc(CNC(=O)c2ccc(Sc3ccc(C)cc3)c(NC(C)=O)c2)cc1OC,99,0,-7,i,/,0,-10,4,eIF4H FP inh retest=-15;PABP FP inh retest=0
CC(=O)Nc1ccc(S(=O)(=O)N(C)CC(=O)Nc2cccc(S(=O)(=O)N3CCCC3)c2)cc1,/,3,-1,i,/,/,12,/,
O=C1NC(=Nc2cccc(O)c2)S/C1=C\c1cccc([N+](=O)[O-])c1,1,2,-5,i,/,-1,-9,5,
COC(=O)CCCC1=CC2=C(c3ccccc3)C(=O)C(C)(OC(=O)C3CCCC3)C(=O)C2=CN1c1ccc(OC)cc1 (stereo not drawn),13,-3,8,i,0,14,3,-4,

# Compound activity from PubChem BioAssay.
